# Screens: PubChem, National Center for Advancing Translational Sciences (NCATS)
# gsp ag: agonists of gsp mutant (McCune-Albright syndrome) | Potency, µM (series often up to 76.9 µM), without a hit: at the highest dose activation (cAMP increase), hits mostly activators | gsp mutant cells, cAMP HTRF, 30 min; control for the full effect not named in the record | 340,000 tested, 0.13% active; active = well fitted activation curve with a large enough effect; inconclusive = small, poorly fitted or top-dose-only effect, or another doubt; inactive = no such curve, though single readings can be large or run the other way; cell line not stated here;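 note: phosphodiesterase inhibitor Ro 20-1724 added with compounds to block cAMP breakdown; potency is the fitted concentration of half-maximal effect; nearly all actives have a fitted effect of over 60% in size; about a fifth of the inactives were tested at one dose only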
#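 Cells in DMEM/10% FBS with G418 were pretreated with compounds in DMSO plus […] (300 uM stock) for 30 min at 37C. cAMP was measured by HTRF (cAMP-d2 plus anti-cAMP antibody-K) after 30 min at room temperature.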
# D2 ag: human D2 receptor agonism in beta-arrestin assay; P14416; DiscoveRx PathHunter D2 beta-arrestin, luminescence, 90 min; 100% = 57 uM dopamine signal; activation, % (concentration not given with the values); 360,000 tested, 0.084% active; in the data active = activation above about 40%; inconclusive = about 15% to 40%; inactive = below about 15%; note: compound concentration not given in the record; the text of the record calls up to 30% inactive
#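 DiscoveRx PathHunter D2 beta-arrestin cells (2,100/well) attached overnight, then compound-stimulated 90 min at 37 C in HBSS/10 mM HEPES/0.1% Tween-20 buffer; beta-galactosidase complementation read by luminescence after 1 h at ambient temperature. Dopamine 57 uM final (EC100) as control.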
# gsp antagonist: antagonists of gsp mutant (McCune-Albright syndrome) | gsp-mutant cells, cAMP HTRF, 30 min; control for the full effect not named in the record | Potency, µM (doses to about 76.9 µM), without a hit: at the top dose activity change, negative = inhibition, hits mostly inhibitors | 340,000 tested, 0.4% active; active = falling curve of any shape with a large fitted effect; inconclusive = falling curve, mostly with a smaller effect; inactive = flat or rising curve; cell line not stated here;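 note: intracellular cAMP measured with PDE inhibitor Ro 20-1724 present during compound exposure; potency is the fitted concentration of half-maximal effect; % is set by controls: 0 for no effect and ±100 for the full control effect; nearly all actives have a fitted effect of over 65% in size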
#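 HTRF cAMP read-out (cAMP-d2 plus anti-cAMP antibody-K in lysis buffer, 30 min RT). Before lysis, cells are exposed to compounds with […] for 30 min at 37C in DPBS containing Ca/Mg, BSA and Tween 20.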
# Six1-Eya2 inh: blocks human Six1 binding to Eya2; Q15475+O00167; activity change, % (no concentration beside the values); AlphaScreen GST-Six1/His-Eya2 binding, biochemical; hits give low values; control for the full effect not named in the record; AID 651725; 360,000 tested, 0.56% active; in the data active = activity change below about -65%; inconclusive = about -30% to -65%; inactive = above about -30%; note: % is set by controls: 0 for no effect and ±100 for the full control effect; compound concentration not given in the record
# Target sequence (O00167 whole entry, looked up): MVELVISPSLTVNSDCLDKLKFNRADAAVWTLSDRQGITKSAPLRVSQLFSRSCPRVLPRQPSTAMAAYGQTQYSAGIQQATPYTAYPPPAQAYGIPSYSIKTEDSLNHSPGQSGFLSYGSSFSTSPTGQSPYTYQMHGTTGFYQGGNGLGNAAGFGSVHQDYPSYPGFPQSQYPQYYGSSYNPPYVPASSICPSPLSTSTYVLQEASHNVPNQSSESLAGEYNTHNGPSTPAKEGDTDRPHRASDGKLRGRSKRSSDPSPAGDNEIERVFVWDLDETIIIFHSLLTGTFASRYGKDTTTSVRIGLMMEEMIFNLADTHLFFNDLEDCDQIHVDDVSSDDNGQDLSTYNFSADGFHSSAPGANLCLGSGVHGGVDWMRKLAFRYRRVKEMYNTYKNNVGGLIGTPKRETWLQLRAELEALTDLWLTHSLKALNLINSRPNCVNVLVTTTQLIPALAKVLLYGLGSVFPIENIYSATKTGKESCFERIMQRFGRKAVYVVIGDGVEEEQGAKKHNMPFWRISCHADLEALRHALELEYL
# Target sequence (Q15475 whole entry, looked up): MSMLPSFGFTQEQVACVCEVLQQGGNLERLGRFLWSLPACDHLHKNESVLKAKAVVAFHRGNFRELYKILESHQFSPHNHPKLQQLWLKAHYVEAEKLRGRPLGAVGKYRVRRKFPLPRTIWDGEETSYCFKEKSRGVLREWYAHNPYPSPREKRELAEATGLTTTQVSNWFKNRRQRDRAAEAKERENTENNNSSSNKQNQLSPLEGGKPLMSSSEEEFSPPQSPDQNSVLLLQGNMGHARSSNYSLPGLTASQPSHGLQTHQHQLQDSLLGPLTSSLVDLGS
#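 Compounds are tested against tagged Six1 and Eya2 proteins bridged by glutathione donor and nickel acceptor beads; after a one-hour incubation at 37 °C without light, AlphaScreen emission is recorded.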
# D2 PAM: human D2 receptor positive allosteric modulation | DiscoveRx D2 beta-arrestin cells, luminescence, 90 min; 100% = 57 uM dopamine signal | potentiation, % (test concentration not listed) | 360,000 tested, 0.23% active | AID 624464; active = potentiation of 50% or more; inconclusive = 30% to 50%; inactive = 30% or less;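 note: compound concentration not given in the record; tested on top of an EC20 dose of dopamine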
#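 PathHunter beta-arrestin assay in DiscoveRx D2 cells. Compounds were added with an EC20 of dopamine (50 nM final) for 90 min at 37 deg C. Luminescence was read 1 h after detection reagent, with 57 uM dopamine as the EC100 control.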
# CtBP-E1A blk: blocks the CtBP interaction with E1A; AID 651724; 340,000 tested, 0.49% active; AlphaScreen GST-E1A/His-CtBP binding, 1536-well; hits give low values; control for the full effect not named in the record; activity change, % (test concentration not listed); in the data active means activity change below about -65%; inconclusive means about -30% to -65%; inactive means above about -30%; note: % is set by controls: 0 for no effect and ±100 for the full control effect; compound concentration not given in the record
#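 AlphaScreen with 125 nM GST-E1A and 125 nM His-CtBP (5X stocks) in Tris pH 8.0, 300 mM NaCl, BSA, Tween 20, TCEP. Compounds preincubated 2 h at 37 deg C, then glutathione donor/nickel acceptor beads added for 1 h at 37 deg C in dark.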
# * = called active by the depositor; ? = inconclusive; · = no result given; [ ] = dose if it differs, or a comment.
1. CCOC(=O)c1cc2occc2n1CC(=O)NCCOC
2. CC12CCC(=O)N1c1ccccc1C(=O)N2c1ccccc1 (stereo not drawn)
3. Cc1cccc(-c2nsc(SCC(=O)N3CCCC3)n2)c1
4. CCOC(=O)N1CCN(Cc2nc3c(c(=O)n(C)c(=O)n3C)n2Cc2ccc(F)cc2)CC1
5. O=C(c1ccc(Cl)c([N+](=O)[O-])c1)N(Cc1ccccc1)C1CCS(=O)(=O)C1 (stereo not drawn)
6. Cc1cccc(NC(=O)CN2C(=O)c3ccccc3S2(=O)=O)n1
7. O=C(OCC(=O)N1CCN(C(=O)c2ccco2)CC1)c1cc(=O)c2ccccc2o1
8. Cc1ccc(S(=O)(=O)NNC(=O)C(=O)NNS(=O)(=O)c2ccc(C)cc2)cc1

Compound	1	2	3	4	5	6	7	8
gsp ag	-8%	-10%	-19%	4%	-7%	25%[15.4 µM]	-5%	-9%
D2 ag	-0.6	1.1	-4.7	-3.1	0.7	1.5	-2.0	-4.0
gsp antagonist	1%	5%	-8%	-9%	-4%	7%	-10%	10%
Six1-Eya2 inh	2	0	0	-4	-2	8	3	9
D2 PAM	20	-16	-13	-2	4	3	-5	-2
CtBP-E1A blk	13	12	-9	-1	-2	6	3	2

9. CC(=O)Nc1ccc(S(=O)(=O)N(C)Cc2ccccc2)cc1
10. O=C1c2ccccc2N2C(=O)c3ccccc3C2N1Cc1ccccc1 (stereo not drawn)
11. Cc1ccc(CS(=O)Cc2ccc(C(=O)NC3CCC(C)CC3)o2)cc1 (stereo not drawn)
12. COc1ccc(OCCC(=O)OCC(=O)NCCC2=CCCCC2)cc1
13. Cc1ccc2cccc(OCC(=O)Nc3ccc4c(c3)OCO4)c2n1
14. O=S(=O)(c1cccs1)N1CCc2ccccc2C1
15. C/C(=N\NC(=O)c1nnn(-c2nonc2N)c1CSc1ccc(C)cc1)c1ccco1
16. O=C(C1=C(O)C(=O)N(CC2CCCO2)C1c1ccccc1Cl)c1ccco1 (stereo not drawn)

Compound	9	10	11	12	13	14	15	16
gsp ag	5%	14%	?	28%[15.4 µM]	6%[15.4 µM]	-16%	0%	?
D2 ag	-1.1	7.4	-5.5	2.2	-6.7	-1.8	-0.2	-4.3
gsp antagonist	11%	-27%	2%	6%	-9%	?	-1%	6%
Six1-Eya2 inh	-1	-1	3	1	-22	14	1	2
D2 PAM	-5	-7	-18	5	-6	-1	-1	-4
CtBP-E1A blk	1	-13	-3	6	-26	14	3	-11

# Records 9 through 10, reprinted for reference:
9. CC(=O)Nc1ccc(S(=O)(=O)N(C)Cc2ccccc2)cc1
10. O=C1c2ccccc2N2C(=O)c3ccccc3C2N1Cc1ccccc1 (stereo not drawn)

Compound	9	10
gsp ag	5%	14%
D2 ag	-1.1	7.4
gsp antagonist	11%	-27%
Six1-Eya2 inh	-1	-1
D2 PAM	-5	-7
CtBP-E1A blk	1	-13

# The list goes on.
17. CCn1c(SCC(=O)Nc2cccc(O)c2)nc2c1c(=O)n(C)c(=O)n2C
18. CSCCC(NC(=O)c1cccc(C)c1)C(=O)Nc1sccc1C(N)=O (stereo not drawn)
19. CCn1c(SCC(=O)Nc2cccc(C)c2)nc2ccccc2c1=O
20. Cc1ccc(C2C(C#N)=C(N)SC(N)=C2C#N)c(C)c1
21. CC1(C)CC(N2CCN(CCO)CC2)=CC(=S)N1
22. O=S(=O)(c1cccs1)N1CCN(c2ccnc3cc(Cl)ccc23)CC1
23. CCN(C(=O)CSc1nnnn1-c1ccc(OC)cc1)C1CCS(=O)(=O)C1 (stereo not drawn)
24. COc1cccc(C2Nc3ccccc3C(=O)N2O)c1O (stereo not drawn)

Compound	17	18	19	20	21	22	23	24
gsp ag	?	10%	10%	?	-116%[inhibitor]	-4%[15.4 µM]	-3%	21%
D2 ag	-0.4	-0.5	8.0	1.1	1.2	6.7	0.9	-2.7
gsp antagonist	12%	-25%	-20%	?	7%	?	4%	-4%
Six1-Eya2 inh	-27	-16	-1	-1	3	-2	4	1
D2 PAM	1	-4	-7	-2	13	6	-4	-8
CtBP-E1A blk	-23	-4	-2	2	·	0	1	2

25. CCOc1nc(C)cc(C)c1S(=O)(=O)c1ccc(Cl)cc1
26. CC(C)(C)NC(=O)/C=C/c1cccs1
27. CCN1C[C@@H]2[C@@H]3C(=O)N(Cc4ccccc4)C(=O)[C@@H]3[C@](Cc3ccccc3)(C1=O)N2C(=O)c1ccccc1
28. O=[N+]([O-])c1ccc(Cl)cc1N1CCCC1
29. O=C(Nc1ccc(N2CCCCC2)cc1)c1ccc([N+](=O)[O-])o1
30. Cc1cc(C(=O)Nc2ccc(Cl)cc2)c2ccccc2n1
31. CCOC(=O)c1c[nH]n2c(=S)ncnc12
32. Cc1ccc(S(=O)(=O)CCC(=O)OCCOc2ccc(Br)cc2)cc1

Compound	25	26	27	28	29	30	31	32
gsp ag	-34%[inhibitor]	-12%	-19%	-82%[inhibitor]	-5%[15.4 µM]	-25%	27%	-76%[inhibitor]
D2 ag	0.7	-4.8	-1.9	0.4	1.2	-2.7	-6.4	0.3
gsp antagonist	-19%	9%	2%	0%	5%	2%	·	·
Six1-Eya2 inh	4	6	10	-11	-28	2	-12	12
D2 PAM	-11	-4	-10	-6	19	-4	-6	5
CtBP-E1A blk	16	11	0	-14	-5	1	1	0

# Looked up above:
# For D2 ag, Cc1cc(C(=O)Nc2ccc(Cl)cc2)c2ccccc2n1 shows -2.7
# For gsp antagonist, O=C(Nc1ccc(N2CCCCC2)cc1)c1ccc([N+](=O)[O-])o1 shows 5%
# For D2 ag, CC(C)(C)NC(=O)/C=C/c1cccs1 shows -4.8
# For gsp ag, O=[N+]([O-])c1ccc(Cl)cc1N1CCCC1 shows -82%[inhibitor]

# Back to the main list with the 3 entries that preceded the break.
30. Cc1cc(C(=O)Nc2ccc(Cl)cc2)c2ccccc2n1
31. CCOC(=O)c1c[nH]n2c(=S)ncnc12
32. Cc1ccc(S(=O)(=O)CCC(=O)OCCOc2ccc(Br)cc2)cc1
33. COc1nccnc1NS(=O)(=O)c1ccc(NC(=S)NC(=O)/C=C/c2ccc(F)cc2)cc1
34. COc1cc(CCC(=O)Nc2ccc(C)c(S(=O)(=O)N3CCCCCC3)c2)cc(OC)c1OC
35. C=CCn1c(Cc2cccs2)nnc1SCC(=O)c1ccc2ccccc2c1
36. COc1cccc(-c2ccc3nnc(SCC(=O)Nc4ccc(NC(C)=O)cc4)n3n2)c1
37. CN(c1ccccc1C(=O)Nc1ccccc1-c1ccccc1)S(C)(=O)=O
38. S=C(NCCCN1CCOCC1)Nc1ccc(Cl)c(Cl)c1
39. CCOc1ccc(NC(=O)CSc2nnc(C3CC3)n2C2CC2)cc1
40. Cc1sc2ncnc(NCC(c3ccco3)N(C)C)c2c1C (stereo not drawn)

Compound	30	31	32	33	34	35	36	37	38	39	40
gsp ag	-25%	27%	-76%[inhibitor]	4%	-39%	-34%[inhibitor]	-4%[15.4 µM]	-25%	?	?	7%
D2 ag	-2.7	-6.4	0.3	-3.7	-0.3	-1.9	-1.6	-3.0	0.6	-6.6	-1.5
gsp antagonist	2%	·	·	?	?	-23%	2%	0%	20%	5%	-8%
Six1-Eya2 inh	2	-12	12	-10	-8	-4	-13	2	-1	0	0
D2 PAM	-4	-6	5	-2	3	-10	-4	-1	-18	2	-16
CtBP-E1A blk	1	1	0	-24	-2	-2	1	0	4	-5	-5

# Single records, as listed above. Screens in order: gsp ag	D2 ag	gsp antagonist	Six1-Eya2 inh	D2 PAM	CtBP-E1A blk
# Record of C=CCn1c(Cc2cccs2)nnc1SCC(=O)c1ccc2ccccc2c1 : -34%[inhibitor]	-1.9	-23%	-4	-10	-2
# Record of S=C(NCCCN1CCOCC1)Nc1ccc(Cl)c(Cl)c1 : ?	0.6	20%	-1	-18	4
# Record of Cc1sc2ncnc(NCC(c3ccco3)N(C)C)c2c1C (stereo not drawn) : 7%	-1.5	-8%	0	-16	-5

# (cont.)
41. Fc1ccc(NC(=S)Nc2cccc(Cl)c2)cc1
42. O=c1oc(-c2ccccc2F)nc2scc(-c3ccccc3)c12
43. Cc1cc(SCC(=O)OCC(=O)NCC2CCCO2)c(C)cc1Br (stereo not drawn)
44. N=C(N)SCc1ccc(Cl)cc1Cl
45. Cc1cc(OC(=O)c2cccc([N+](=O)[O-])c2)c(C)cc1CN1CCOCC1
46. CCOC(=O)c1sc(NC(=O)c2ccc(OC)cc2)nc1C
47. COc1ccc(CCC2=NCCN2C(CC(C)C)c2nc3ccccc3[nH]2)cc1 (stereo not drawn)
48. COCCNc1ncnc2c1ncn2[C@H]1CN(Cc2ccncc2)C[C@@H](CO)O1
49. FC(F)(F)c1ccc2c(c1)n(Cc1ccccc1)c1[n+]2CCCCC1
50. O=C(COc1ccc(F)cc1)NNC(=O)Cn1ccc(C(F)(F)F)n1
51. O=C(NCCC(=O)N1CCc2ccccc21)c1ccco1

Compound	41	42	43	44	45	46	47	48	49	50	51
gsp ag	6%	4%[15.4 µM]	5%	35%	-3%[15.4 µM]	22%	·	·	-13%[15.4 µM]	?	1%[15.4 µM]
D2 ag	-0.2	-0.2	0.6	-13	4.4	?	-4.5	-2.2	-2.8	0.7	-2.9
gsp antagonist	-11%	-4%	-13%	-4%	-1%	2%	·	·	5%	23%	4%
Six1-Eya2 inh	1	3	2	1	-17	3	8	15	-11	0	-4
D2 PAM	-11	-2	-6	-16	-8	-1	-8	2	-13	-5	-13
CtBP-E1A blk	·	6	·	·	-24	4	5	-8	-1	10	1
